Screening data as filed in PubChem.
CapD inh: CapD enzyme inhibition | z-score (no concentration beside the values) | purified CapD enzyme, fluorescence intensity read-out; active compounds read low; some hits fall short of the stated cut | 140,000 compounds, 0.23% hits;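 active means z-score under -4 in either of two replicates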;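 further: stock transfer was 100 nL into about 40 µL; score is relative to mean and spread of the plate; one replicate is shown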
AID504770: growth inhibitors of E. coli YBA685 in a screen for V. cholerae RctB (chromosome II replication) inhibitors | E. coli YBA685 rctB-dependent plasmid, OD600 growth, 3 h; active compounds read low | z-score (no concentration beside the values) | 130,000 compounds, 0.27% hits | AID 504770;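 active means z-score under -2 on both plates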;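 further: wells of about 30 µL received 100 nL stock; score is relative to mean and SD of the test wells; the first replicate is given; strong numbers were not always called active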
* hit, by the source's call; x = no result given. Some of the compounds tested; rates above refer to the full screens.

Structure	AID504770	CapD inh
COc1ccccc1C1CC(c2ccc(Br)cc2)=NN1C(C)=O (stereo not given)	x	2.9
O=c1c2ccccc2nc2c3ccccc3c(SCc3ccccc3)nn12	0.05	1.2
Cn1nc(C(F)(F)F)c2cc(C(=O)Nc3cccc(C(F)(F)F)c3)sc21	x	-0.28
CCOc1cc(C2Nc3ccc4ccccc4c3C3=C2C(=O)CC(C)(C)C3)ccc1OCc1ccc(Cl)cc1Cl (stereo not given)	x	17
O=C(O)CC(F)(F)CC(=O)O	1.4	x
CS(=O)(=O)CCC(C(=O)n1nnc2ccccc21)N1C(=O)c2ccccc2C1=O (stereo not given)	-0.75	16
O=C(CCS(=O)(=O)c1cccc2nsnc12)NC1CCCC1	0.2	0.83
CN(C)/N=C/c1ccc(C(=O)NC(=O)C(F)(F)F)o1	-1.1	x
C=CCN1C(=O)C2(NC(=O)c3c(sc(C)c3C)N2)c2ccccc21 (stereo not given)	x	0.41
N/C(Cc1cccc2ccccc12)=N\OC(=O)N1CCOCC1	-1.4	0.19
O=C(c1cccs1)N1CCCn2c(SCc3ccccc3Cl)nnc21	1.5	-2.2
N#CCC(=O)Nc1cccc(Cl)c1	x	0.44
O=C(O)/C=C/C(=O)N1CCN(c2ccc(F)cc2)CC1	-0.3	x
O=C(Cc1ccccc1)NO	0.3	x
Cc1c(-c2ccccc2)nc2ccccc2c1C(=O)OCC(=O)N(C)C	1.1	x
CCC(=O)Nc1ccc(Nc2nc(Cl)nc(Nc3ccc(NC(=O)CC)cc3)n2)cc1	x	-0.22
O=C(c1ccccc1Cl)n1cnc2ccccc21	0.2	-0.025
CN(C)S(=O)(=O)c1ccc(S(=O)(=O)N2CCC(O)CC2)cc1	1.6	x
COc1ccc(NC(=O)c2cn(-c3ccccc3)nc2SC)cc1	0.2	0.79
O=C1CC(c2cccc(Oc3ccccc3)c2)NC(=O)N1CN1CCN(c2ccccc2)CC1 (stereo not given)	0.7	x
O=C(Nc1ccc(S(=O)(=O)N2CCCCC2c2cccnc2)cc1)c1ccccc1Cl (stereo not given)	x	-0.54
CN=c1scc(-c2cc(OC)ccc2OC)n1/N=C1\CCc2ccccc21	0.65	x
C=C1Cn2c(nnc2-c2ccc(Cl)cc2)S1	0.25	0.84
Cc1cccc(NC(=O)CSC2=C(C#N)C(c3ccc(Cl)cc3Cl)CC(=O)N2)c1C (stereo not given)	x	-0.44
Clc1ccc(-c2nc3ccccc3o2)c(Cl)c1	-0.5	0.26
O=C(O)c1cnc(SCc2ccccc2)[nH]c1=O	0.95	0.61
CC(Sc1ccccc1)C(=O)Nc1ccc(Cl)cc1 (stereo not given)	-0.85	0.41
CCCCCn1c(SCC(=O)c2ccccc2)nc2cc(C(=O)NCc3ccco3)ccc2c1=O	-0.2	0.13
COc1cc(/C=C2\N=C(c3cc([N+](=O)[O-])ccc3Cl)OC2=O)cc(Br)c1OC(C)=O	x	-0.49
CC1(C)CC(=O)C2=C(C1)NC1=C(C(=O)c3ccccc31)C2c1cc(Br)ccc1O (stereo not given)	x	0.62
CCCOc1ccc(CNC(=S)NCc2ccc(OC(C)C)cc2)cc1	-0.15	0.53
COc1ccc(Nc2nc(C)cc(=O)[nH]2)cc1	-0.95	0.095
S=c1nc(Cc2ccccc2)[nH][nH]1	-0.35	0.26
CC(C)(c1ccccc1)c1ccc(OCC(=O)NC2CCCC2)cc1	-0.25	-0.54
CCOc1ccccc1NC(=O)c1c(NC(=O)c2ccc(Br)cc2)sc2c1CCCCC2	x	-0.37
COC(=O)C1=C(N)OC2=C(C(=O)CC(c3ccccc3)C2)C1c1cccc(Br)c1 (stereo not given)	x	-0.18
COC(=O)c1ccc(CNC(=O)C2CC2C)cc1 (stereo not given)	0.45	x
CCSc1nc(=O)[nH]c2c1CCC2	-1.1	x
O=C(O)CCCN1C(=O)CNC1=O	0.1	x
Cc1cc(C)cc(NCCC(=O)O)c1	0.5	-0.29
CC(C)n1c(SCC(=O)c2ccc3c(c2)NC(=O)CO3)nc2cc(Cl)ccc2c1=O	-0.1	x
Cc1ccc(C(=O)N/N=C/c2ccc(O)c(O)c2O)c(C)c1	-0.5	x
COC(=O)c1nnn(CC(=O)NCc2ccc3c(c2)OCO3)c1C(=O)OC	-0.15	-0.42
O=C(O)CCCC(=O)N1CCN(c2nc(-c3ccccc3)c3ccccc3n2)CC1	-0.3	0.7
CC1=C(C(=O)Nc2ccccn2)C(c2ccc(Cl)cc2)n2nnnc2N1 (stereo not given)	x	12
COc1ccc(NC(=O)CSc2nc(C)cc(=O)[nH]2)cc1	1.3	-0.12
Cc1nccc(-c2sc(-c3cccs3)nc2C)n1	1.1	91
CCOc1ccccc1N(CC(=O)Nc1ccc(S(=O)(=O)N2CCCCC2)cc1)S(=O)(=O)c1ccccc1	x	-0.71
COc1ccc(-n2c(C)cc(=O)cc2C)cc1	-0.75	-0.85
CN1CCN(c2nnc(-c3ccccc3)c3ccccc23)CC1	0.35	-0.68
Cn1c(=O)n(CC(=O)Nc2ccc(F)c(Cl)c2)c(=O)c2ccccc21	x	0.67
C=CCn1c(SCC(=O)Nc2ccccc2C(=O)NC2CCCC2)nnc1-c1ccoc1C	2	x
Cc1ccc(-n2c(=S)sc3c(=O)n(-c4ccccc4C)c(=S)[nH]c32)cc1C	x	-1.1
CCC[C@@H]1C[C@@H](C(=O)N[C@H]([C@@H](C)O)[C@H]2O[C@H](SC)[C@H](O)[C@@H](O)C2O)N(C)C1 (stereo not given in full)	x	-0.21
CNS(=O)(=O)c1ccc2c(c1)C(=NO)c1cc(S(=O)(=O)NC)ccc1-2	-0.65	-0.42
Cc1ccc(C)c(N2CCN(CCCNC(=O)Nc3ccc(F)c(Cl)c3)CC2)c1	-0.25	-0.22

Complete entries as entered above. Screens in order: AID504770, CapD inh
CN1CCN(c2nnc(-c3ccccc3)c3ccccc23)CC1 across the screens: 0.35, -0.68
CCC[C@@H]1C[C@@H](C(=O)N[C@H]([C@@H](C)O)[C@H]2O[C@H](SC)[C@H](O)[C@@H](O)C2O)N(C)C1 (stereo not given in full) across the screens: x, -0.21
CNS(=O)(=O)c1ccc2c(c1)C(=NO)c1cc(S(=O)(=O)NC)ccc1-2 across the screens: -0.65, -0.42
C=CCn1c(SCC(=O)Nc2ccccc2C(=O)NC2CCCC2)nnc1-c1ccoc1C across the screens: 2, x

(listing goes on)
Structure	AID504770	CapD inh
Nc1c(-c2nc(-c3ccccc3)cs2)c2ccccn2c1C(=O)c1ccccc1	-0.7	0.18
Cc1ccc(C(=O)N2CCC(NC(=O)Cc3ccccc3)CC2)cc1	-0.5	-0.12
COc1cccc(C2CC(c3cccs3)=NN2C(=O)CSc2nnc(CNC(=O)c3ccccc3F)n2C)c1OC (stereo not given)	x	7
COc1ccc2nc(C)cc(Cl)c2c1	-1.2	14
CCOC(=O)CCCN1c2ccccc2CCC1C(=O)OCC (stereo not given)	-0.3	0.29
CCOc1cc(-n2cnnn2)c(OCC)cc1N	0.05	1.1
Cc1oc2ccc(OC(=O)COc3c(F)c(F)c(F)c(F)c3F)cc2c1C(=O)OC(C)C	x	0.15
Cc1cc(N2CCC(C(N)=O)CC2)nc2c(C(C)C)cccc12	-0.1	x

Exported as labelled records: part of the list above.
CCOC(=O)CCCN1c2ccccc2CCC1C(=O)OCC (stereo not given)
  AID504770: -0.3 | CapD inh: 0.29

CCOc1cc(-n2cnnn2)c(OCC)cc1N
  AID504770: 0.05 | CapD inh: 1.1

Cc1oc2ccc(OC(=O)COc3c(F)c(F)c(F)c(F)c3F)cc2c1C(=O)OC(C)C
  AID504770: x | CapD inh: 0.15

Cc1cc(N2CCC(C(N)=O)CC2)nc2c(C(C)C)cccc12
  AID504770: -0.1 | CapD inh: x

Additional entries:
Structure	AID504770	CapD inh
N#CCOc1ccc2ccccc2c1	0.95	-0.015
CC(C)CNC(=O)CSc1n[nH]c(-c2ccc(Br)cc2)n1	-0.6	x
CCCc1cc(=O)n2[nH]c(NC(=O)c3ccccc3)nc2n1	-0.4	-0.13
CCOC(=O)N1CCN(Cc2ccc(C(=O)Nc3ccccc3)cc2)CC1	1.8	x
N#Cc1c(C(F)(F)F)cc(-c2cccs2)nc1SCC(=O)Nc1ccc([N+](=O)[O-])cc1	x	1.8
CCCN(C(=O)[C@H](Cc1ccccc1)N1C(=O)c2ccccc2C1=O)C1CCS(=O)(=O)C1 (stereo not given in full)	0.65	x
CCCn1ncc(C(=O)O)c1C	0.3	0.84
Cc1[nH]nc2nc3c(c(-c4cc(C)n(C5CCCC5)c4C)c12)C(=O)CCC3	-1.6	x
Cc1ccsc1/C=N/N1CCN(c2ccccc2)CC1	0.3	x
N#Cc1ccc(C(=O)NCc2ccccc2)cc1	-0.55	x
O=C(CSc1ncnc2nc[nH]c12)NCCc1ccccc1	-0.6	0.065
Cc1oc2ncn(C)c(=O)c2c1C(=O)N(C)c1ccc(F)cc1	-0.35	-0.05
CCOC(=O)c1ccc(N=Cc2ccccc2Oc2ccc(F)c(F)c2)cc1	x	-0.43
CCOC(=O)C1=C(C)Nc2[nH]c(=O)[nH]c(=O)c2C1c1ccccc1 (stereo not given)	-0.2	x
COc1ccc(C(CC(=O)NC2CCCC2)N2Cc3ccccc3C2=O)cc1OC (stereo not given)	0.65	0.53
O=C(Nc1cccc(O)c1)c1cc2n(n1)C(C(F)(F)F)CC(c1ccc(F)cc1)N2 (stereo not given)	x	0.11
Cn1nccc1C(N)c1ccccc1 (stereo not given)	-0.6	x
Nc1ccc(Cl)cc1/C(=N/O)c1ccccc1	x	-0.27
O=C(NCC(F)(F)F)c1cc2ccccc2cc1O	-0.3	x
O=c1[nH]c(=S)[nH]cc1S(=O)(=O)c1ccc(Cl)cc1	-0.3	-3.6
COC(=O)C(C)Sc1nc(-c2ccc(OC)cc2)nc2c1c(=O)n(C)c(=O)n2C (stereo not given)	1.3	2.2
CNc1ccccc1C(C)(C)c1cc(C)[nH]n1	0.35	-0.34
CN(C)c1cc(C(=O)NCc2cccc(C(F)(F)F)c2)nc(N(C)C)n1	x	3.7
Cc1sc2nc(-c3ccc(Cl)cc3)oc(=O)c2c1C	x	0.36
O=C(/C=C/c1ccco1)OCc1c(F)cccc1Cl	-0.2	x
Cc1[nH]c(=O)c(C#N)c(C)c1CCC(=O)N1CCc2ccccc21	-0.45	x
CC(O)CNc1ncnc2c1c(-c1ccccc1)cn2-c1ccccc1 (stereo not given)	-0.5	-0.22
O=C(Nc1ccc(Cl)cc1)c1cccnc1OCC(F)(F)F	0	-0.27
CCn1c2ccccc2c2cc(CN(CCOC(=O)NC(Cc3c[nH]c4ccccc34)C(=O)OC)C(=O)OC(C)(C)C)ccc21 (stereo not given)	x	12
CC1CCCCC1NC(=O)CCn1c(=O)sc2ccccc21 (stereo not given)	-0.5	-0.01
Cc1cc(NC(=O)c2ccc3c(c2)S(=O)(=O)c2ccccc2C3=O)no1	-0.7	x
Cc1cc(C)nc(Nc2ccccc2C(F)(F)F)n1	x	-0.45
CCC(=O)NNc1ncnc2ccccc12	0	x
CCOC(=O)COc1ccc(C2CC(C)=NN2c2ccccc2)cc1 (stereo not given)	0.5	0.84
N#Cc1ccc(C=Nc2ccc(N)c(Cl)c2)cc1	-1	-0.79
CCOC(=O)c1[nH]c(C)c(C(=O)OCC(=O)N2CCc3ccccc32)c1C	-0.1	x
FC(F)(F)c1cccc(-c2[nH]ncc2-c2cnccn2)c1	x	0.3
CC(CS(=O)(=O)c1ccc2c(c1)NC(=O)CS2)C(=O)N1CCCCC1 (stereo not given)	0.1	-0.31
CC(CCOC(=O)NNC(=O)/C=C/c1cccc(C(F)(F)F)c1)c1ccccc1 (stereo not given)	x	2
CC(C)CCn1c(=O)c2ccccc2n2c(CSC(C)c3nc4ccccc4c(=O)[nH]3)nnc12 (stereo not given)	0.25	x
CCOc1cc(/C=C(\C#N)C(=O)OC(C)C)ccc1OCC(=O)N(C)C	0.9	x
CN(Cc1ccc(Br)cc1)S(=O)(=O)c1cccc(C#N)c1	-0.1	x
Cc1ccc(Nc2c(-c3ccc(C)o3)nc3nc(C)cc(C)n23)cc1	0.2	2.8
CC1CCN(S(=O)(=O)c2cccc(C(=O)Nc3ccccc3C(=O)Nc3ccc(Cl)cc3)c2)CC1	x	-0.44
CCOc1cc2c(cc1OCC)C1c3ccccc3OCC(=O)N1CC2 (stereo not given)	-0.55	0.4
N#Cc1ccc(CSCCN2C(=O)c3ccccc3C2=O)cc1	0.5	x
CSc1ccc(S(=O)(=O)NCCc2ccccc2)cc1	-0.95	-0.12
N#CC1(C#N)[C@@H]2c3ccccc3C=CN2[C@@H](C(N)=O)[C@@H]1c1ccc(F)cc1	-0.9	9.6
O=[N+]([O-])c1cccc(-c2nn[nH]n2)c1	x	-0.78
CS(=O)(=O)C1=C(N)C(=O)N(c2ccccc2)C1c1ccccc1 (stereo not given)	-0.7	-0.32
Cc1ccc(C)n1-c1ccc(SCC(=O)O)cc1	-1.5	-3.4
COCCCn1c(SCc2cc(=O)oc3cc(O)c(O)cc23)nnc1-c1ccc(Cl)cc1	0.75	x
CCCc1c(C(=O)Nc2ccc(N3CCOCC3)cc2)cnn1-c1ccccc1	-0.2	-0.18
COc1ccc(C2C3=C(CC(C)(C)CC3=O)OC3=C2C(=O)CC(C)(C)C3)cc1CSc1nc2ccccc2o1	x	0
c1ccc(-c2ncc3ccccn23)cc1	x	36
O=C(c1cc(S(=O)(=O)N2CCCCC2)ccc1N1CCCC1)N1CC=C(c2ccccc2)CC1	-1.9	x
